ClpP mod = qHTS Assay for Activators of ClpP; 340,000 tested, 1.9% active; Potency, µM (doses to about 57.5 µM), for the others: at the highest dose activity change, negative = active; AID 651965, 2013; purified B. subtilis ClpP, FRET peptide cleavage, 20 min; active = well fitted falling curve with a large enough effect; inconclusive = small, poorly fitted or top-dose-only effect; inactive = no such curve, though single readings can be large or run the other way; also: potency is read from the fitted curve at half-maximal effect; the source files actives as falling curves though it sought activators and does not explain the sign; nearly all actives have a fitted effect of over 65% in size; many hits overshoot -100%
Target sequence (P80244 whole entry, looked up): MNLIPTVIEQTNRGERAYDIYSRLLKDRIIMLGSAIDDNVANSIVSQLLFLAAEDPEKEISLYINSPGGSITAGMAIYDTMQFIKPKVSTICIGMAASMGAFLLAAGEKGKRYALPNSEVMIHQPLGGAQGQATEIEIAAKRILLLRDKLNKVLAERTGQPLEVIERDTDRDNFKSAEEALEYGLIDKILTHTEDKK
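ClpP 10 microg/mL final, pH 8 Tris/KCl buffer with BSA, glycerol, Tween-20; compound pinned in; FRET-FV substrate; RT 20 min; Ex320/Em430; ΔFRET vs ADEP 5.8 microM, DMSO, no enzyme.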
TRPML1 inh = qHTS for Inhibitors of the Human Mucolipin Transient Receptor Potential 1 (TRPML1). activity change, negative = inhibition, % (test concentration not listed). TRPML1-inducible cells, Ca2+ dye fluorescence, FDSS; stronger effect = lower value; inhibition of EC80 agonist-evoked calcium signal. Mucolipin-1 (Homo sapiens), Q9GZU1. 390,000 tested, 0.02% active; in the data active means activity change below about -50%; inconclusive means about -30% to -50%; inactive means above about -30%;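 also: stimulus is agonist 54-4 at its EC80 concentration; % is scaled to controls: 0 for no effect and ±100 for the full control effect; compound concentration not given in the record; the text of the record puts the active cut at -80%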
Target sequence (Q9GZU1 whole entry, looked up): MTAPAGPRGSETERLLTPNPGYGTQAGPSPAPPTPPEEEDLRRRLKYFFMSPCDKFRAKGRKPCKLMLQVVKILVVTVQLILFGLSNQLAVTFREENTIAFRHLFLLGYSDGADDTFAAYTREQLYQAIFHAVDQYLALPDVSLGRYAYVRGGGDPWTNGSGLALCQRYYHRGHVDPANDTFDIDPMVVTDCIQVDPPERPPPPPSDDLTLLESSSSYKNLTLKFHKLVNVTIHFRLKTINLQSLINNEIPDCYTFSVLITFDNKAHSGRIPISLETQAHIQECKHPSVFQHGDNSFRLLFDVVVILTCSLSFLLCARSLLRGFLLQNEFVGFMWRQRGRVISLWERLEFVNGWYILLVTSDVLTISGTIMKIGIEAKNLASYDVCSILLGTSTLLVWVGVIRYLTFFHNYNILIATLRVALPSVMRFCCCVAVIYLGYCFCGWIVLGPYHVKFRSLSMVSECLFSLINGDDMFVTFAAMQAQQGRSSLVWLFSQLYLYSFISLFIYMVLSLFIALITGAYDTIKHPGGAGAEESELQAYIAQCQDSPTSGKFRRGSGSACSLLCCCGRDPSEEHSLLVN
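TRPML1-DL cells, Tet-induced overnight (~16 h, 37 °C) at 1,500 cells/well, were loaded with Ca8 no-wash dye plus quencher for 45-90 min at room temperature. Compounds were pinned during FDSS kinetic reading; agonist 54-4 at EC80 (4 uM final) then added.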
The depositor's hits bear a star; ? = inconclusive. A portion of the library, so the mix of outcomes need not match the whole.

SMILES	ClpP mod	TRPML1 inh
CCOC(=O)c1ccccc1NC(=O)c1cc2c(s1)-c1ccccc1SC2	0.8%	-9.7
O=C(C1CCC(Cn2c(=O)c3sccc3n(Cc3cccc(F)c3)c2=O)CC1)N1CCCCC1 (stereo not drawn)	-3.9%	20.5
CCOCCCN1C(=O)CN(C2CCCCCC2)C(=O)C1c1ccc(OC(C)C)c(OC)c1 (stereo not drawn)	0.3%	-19.3
COc1ccc(-c2noc(CN(C)S(=O)(=O)c3c(C)cc(C)cc3C)n2)cc1OC	-8.6%	-7.6
CCOC(=O)N1CCc2c(sc(NCc3cc(OC)ccc3OC)c2C(=O)Nc2cc(OC)ccc2OC)C1	-16.7%	-3.6
COc1ccc(C)cc1NC(=O)C(=O)NCC(c1cccnc1)N1CCc2ccccc21 (stereo not drawn)	-1.5%	-27.2
COc1ccc(C(=O)NCCSc2c(C)[nH]c3ccccc23)cc1	-3.3%	?
CCCOc1ccc(NC(=O)CC2C(=O)N(c3ccc(C)cc3)C(=O)N2C(C)C)cc1 (stereo not drawn)	1.2%	8.7
CCc1cccc(NC(=O)c2cc3c(=O)n(Cc4ccc(OC)cc4)ccc3nc2C)c1	-10.2%	7.0
Cc1ccc(Nc2ccc(N3CCN(C(=O)c4cccc([N+](=O)[O-])c4)CC3)nn2)cc1	3.7%	-2.6
Cc1ccc(NC(=O)c2oc3ccccc3c2NC(=O)Cc2cccs2)cc1	3.3%	22.0
COc1ccccc1-c1cc2nc(C)c(CCC(=O)NC3CCCCC3)c(C)n2n1	-8.6%	4.5
COCCCNC(=O)Cn1c(=O)n(-c2ccc(C)cc2)c(=O)c2c1c1cc(C)ccc1n2C	3.7%	4.0
CCOCCn1ccc2c(OCC(=O)Nc3ccc(OC(F)(F)F)cc3)cccc2c1=O	-27.4%	0.2
COc1ccccc1C(=O)Nc1ccc2nc(SCCOc3ccccc3C)sc2c1	3.9%	-10.5
COc1ccccc1NC(=O)CSc1nnc(-c2cccc(Cl)c2)o1	0.6%	-4.9
Cc1ccccc1NC(=O)Nc1ccc2nc(N3CCN(C)CC3)cc(C)c2c1	-0.6%	?
COc1ccc(NC(=O)Cn2c(=O)oc3cc(S(=O)(=O)NCc4ccccc4)ccc32)c(OC)c1	0.1%	2.4
CC(C)NC(=O)C1(C)CCCN1Cc1ccccc1C#N (stereo not drawn)	0.3%	25.3
CC(C)(C)C1CCc2onc(C(=O)Nc3sc4c(c3C#N)CCCC4)c2C1 (stereo not drawn)	1.5%	32.0
Cc1oc(-c2ccc(Cl)cc2)nc1CSCC(=O)NCc1ccccc1Cl	31.6µM*	31.6
CN(Cc1ccccc1)C(=O)CSc1nc2ccsc2c(=O)n1-c1ccc(F)cc1	-0.9%	1.7
CCOC(=O)c1c(C)[nH]c(C)c1S(=O)(=O)N1CCC(C(=O)N2CCN(c3ccccc3)CC2)CC1	-0.2%	-1.4
CCOCCn1ccc2c(OCC(=O)Nc3cccc([N+](=O)[O-])c3)cccc2c1=O	0.3%	-17.3
Cc1ccc(-n2ncc(C(=O)NC3CCN(Cc4ccccc4)CC3)c2C2CCN(C(=O)OC(C)(C)C)CC2)cc1C	0.9%	2.3

Part of the list above in a different format.
SMILES,ClpP mod,TRPML1 inh
CCOCCCN1C(=O)CN(C2CCCCCC2)C(=O)C1c1ccc(OC(C)C)c(OC)c1 (stereo not drawn),0.3%,-19.3
COCCCNC(=O)Cn1c(=O)n(-c2ccc(C)cc2)c(=O)c2c1c1cc(C)ccc1n2C,3.7%,4.0

Later entries:
SMILES	ClpP mod	TRPML1 inh
O=C(Cn1c(=O)n(-c2ccc(F)cc2)c(=O)c2sc3ccccc3c21)NC1CCCCC1	?	16.3
Cc1cc(Br)cn2c(Cc3ccsc3)c(-c3ccc(C#N)cc3)nc12	-14.1%	40.4
CCOc1ccc(CNC(=O)c2cc3c(s2)-c2ccccc2OC3)cc1	3.9%	38.4
CC1Cc2cc(S(=O)(=O)N3CCN(c4ccccc4F)CC3)ccc2N1C(=O)C1CCC1 (stereo not drawn)	-1.9%	33.4
COc1ccc(NC(=O)CN(C)S(=O)(=O)c2ccc(C(=O)N3CCOCC3)s2)cc1	-1.1%	-11.9
CCCOc1ccc(C(=O)Nc2cccc(NC(=O)c3cccc(Cl)c3)c2)cc1	?	3.9
Cc1ccccc1CN1C(=O)c2ccccc2Sc2ccc(C(=O)OCc3ccco3)cc21	-2.3%	51.1
COC(=O)c1ccc(C2c3c(oc4ccccc4c3=O)C(=O)N2c2nc(C)c(C(=O)OC)s2)cc1 (stereo not drawn)	-19.8%	35.7
CCN1CCOC(=O)C1CC(=O)Nc1cc(Cl)ccc1OC (stereo not drawn)	-15.3%	-4.0
O=C(COCc1cc(-c2cccs2)on1)NCc1cccc(Cl)c1	0.5%	-7.9
CC(=O)c1cccc(NC(=O)Cn2c(=O)oc3cc(S(=O)(=O)NCc4ccccc4)ccc32)c1	2.5%	-0.7
Cc1ccccc1C(=O)Nc1ccc(C(=O)OCc2cc(=O)n3nc(C4CC4)sc3n2)cc1	-6.4%	-9.2
CCc1ccc(C(=O)NC(Cc2c[nH]c3ccccc23)C(=O)OCC(=O)c2ccc(Br)cc2)cc1 (stereo not drawn)	-1.3%	27.1
Cc1nn(C(=O)c2ccccc2)c(C)c1Sc1ccc(Cl)cc1	-8.8%	1.6
CC1CCN(S(=O)(=O)c2ccc3c(c2)N(CC(=O)NC(C)c2ccccc2)C(=O)CS3)CC1 (stereo not drawn)	0.4%	-5.6
Cc1ccc(Cl)cc1N1CCN(C(=O)CN2C(=O)CSc3c2c(C)nn3-c2ccccc2)CC1	-0.5%	7.6
CCc1nn(CC(=O)NCCc2ccc(OC)cc2OC)c(=O)c2cc3sccc3n12	-4.0%	27.5
O=C(COc1ccccc1)N(Cc1cccnc1)c1nc2c(F)cccc2s1	-1.0%	4.0
CCc1ccc(NS(=O)(=O)c2cc(Br)cc3c2N(C(C)=O)CC3)cc1	-0.6%	12.8
COc1ccc(CNC(=O)CCc2c(C)nn(-c3ccc(N4CCOCC4)nn3)c2C)cc1	-3.9%	0.9
CCc1ccc(CNc2ncnc3onc(-c4ccc(Cl)cc4)c23)cc1	-14.5%	33.4
Cc1cc(Cl)ccc1NC(=O)CCCn1nc(C)c2c(C)n(-c3ccccc3)nc2c1=O	-4.9%	35.4
CCC(=O)N1CCCC(C(=O)Nc2nc3ccccc3n2C)CC1 (stereo not drawn)	-2.7%	-28.1
CN[C@@H](CO)C(=O)NC[C@H]1O[C@@H](n2cnc3c(N)ncnc32)[C@H](O)[C@@H]1O	0.3%	-6.0
COc1ccc(NC(=O)c2sc3nc(C(F)(F)F)cc(C)c3c2N)cc1OC	-2.1%	14.7
(further entries)
SMILES	ClpP mod	TRPML1 inh
Cn1ccc2c(OCC(=O)NCc3ccccc3Cl)cccc2c1=O	?	16.4
CCc1ccc(CNC(=O)c2ccc(CS(=O)(=O)Cc3ccccc3C)o2)cc1	1.3%	4.8
Cc1cccc(CSc2ncc(Cl)c(C(=O)Nc3sc4c(c3C#N)CCCC4)n2)c1	0.9%	25.9
CC1C(=O)Nc2ccc(S(=O)(=O)NCc3ccc(N(C)C)cc3)cc2NC1=O (stereo not drawn)	0.0%	5.8
O=C(CSc1nnc2scc(-c3ccccc3)n12)Nc1ccc(Cl)cc1	1.1%	-2.3
COC(=O)c1c(NC(=O)c2nc(SCc3ccc(C)cc3)ncc2Cl)sc2c1CCCC2	-2.2%	-6.2
COc1cc(NC(=O)Cc2noc3ccccc23)cc(OC)c1OC	7.2%	3.7
COC(=O)c1c(-c2cccs2)csc1NC(=O)c1ccc(Br)cc1	?	-18.9
COC(=O)c1c(N)n(-c2cc(Cl)cc(Cl)c2)c2nc3ccccc3nc12	3.8%	33.9
O=C(CSc1nnc(CNC(=O)c2c(F)cccc2Cl)o1)Nc1cccc(F)c1	-2.1%	-10.2
COc1ccc(OC)c(Nc2nc(-c3ccc(C)cc3)nc3ccccc23)c1	3.8%	-10.1
O=C(c1ccco1)N(Cc1cccnc1)c1nc2ccc(F)cc2s1	-4.3%	47.5
CCSc1nc2ccccc2c(OCc2ccccc2Cl)c1C(=O)OC	-9.9%	-1.7
O=C(CN1c2ccc(Br)cc2-c2ccccc2S1(=O)=O)N1CCCCC1	-3.4%	-0.4
Cc1cc(Nc2cccc(Cl)c2)nc2ccc(NC(=O)c3cccc(N(C)C)c3)cc12	4.1%	-2.7
COc1ccc(-c2nc3n(n2)C(c2ccccc2)C(C(=O)Nc2cccnc2)=C(C)N3)cc1 (stereo not drawn)	-4.6%	-11.1
CCCCc1ccc(S(=O)(=O)NC(=O)C2(C)CCN2C(=O)Cc2ccccc2)cc1 (stereo not drawn)	1.5%	22.5
CCN(CC)S(=O)(=O)c1nnc(NC(=O)COc2ccc(Cl)cc2)s1	-1.4%	2.7
Cc1ccc(CNC(=O)CN2C(=O)CSc3ccc(S(=O)(=O)N(C)C)cc32)cc1	1.3%	-4.2
O=C(COc1ccc(S(=O)(=O)NC2CCCCC2)cc1)Nc1ccc(C(F)(F)F)cc1	0.0%	-3.7
O=C(CSc1nnc2scc(-c3ccc(Cl)cc3)n12)Nc1cccc(C(F)(F)F)c1	3.5%	32.7
COc1ccc(OC)c(CCNC(=O)CN2C(=O)COc3ccc(S(=O)(=O)N4CCCCCC4)cc32)c1	0.6%	4.1
COc1cccc(N2CCN(C3C(=O)c4ccccc4N3C(C)=O)CC2)c1 (stereo not drawn)	-1.1%	-11.3
O=C(c1ccc2c(c1)CCN2S(=O)(=O)c1ccc(Cl)cc1)N1CCN(c2ccccc2)CC1	-3.1%	45.9
COc1ccc(-c2cc(C)no2)cc1S(=O)(=O)Nc1cccc(C(F)(F)F)c1	1.2%	18.6

Random excerpt: two compounds from above, in no set order.
SMILES	ClpP mod	TRPML1 inh
COc1ccc(OC)c(CCNC(=O)CN2C(=O)COc3ccc(S(=O)(=O)N4CCCCCC4)cc32)c1	0.6%	4.1
Cc1cccc(CSc2ncc(Cl)c(C(=O)Nc3sc4c(c3C#N)CCCC4)n2)c1	0.9%	25.9

The list goes on:
SMILES	ClpP mod	TRPML1 inh
Cc1ccc(Nc2cc(-c3ccccc3)nc(C)n2)cc1	-15.6%	2.8
COCCN1Cc2cccc(C(=O)Nc3ccc(Cl)cc3Cl)c2C1=O	0.2%	55.7
Cc1ccc(/C=C(\C#N)c2nc(-c3ccc(-c4ccccc4)cc3)cs2)cc1	3.0%	-5.1
CCc1nc2nc(C)cc(Nc3cccc(C)c3C)n2n1	-3.0%	2.2
COC(=O)c1scc(-c2ccccc2)c1S(=O)(=O)Nc1ccccc1	1.8%	1.2
COc1cc(NS(=O)(=O)c2ccc(NC(=O)c3ccc(C(C)=O)cc3)cc2)nc(OC)n1	-2.8%	1.8
CCCCN1CC(c2nc3ccccc3n2CCCCOc2cccc(C)c2C)CC1=O (stereo not drawn)	-1.1%	50.6
CCc1nc2ccc(C(=O)NC3CCN(Cc4ccccc4)CC3)cn2c1N(C)CCN1CCOCC1	-10.1%	?
Cc1ccc(N(CC(=O)Nc2ccc(Cl)cc2)S(=O)(=O)c2cccc3nonc23)cc1	1.1%	33.8
Cc1ccccc1OCC(=O)Nc1ccc(OCc2cc(=O)n3ccccc3n2)cc1	-7.2%	35.5
Nc1nnc(SCC(=O)Nc2ccc(Cl)cc2)s1	1.0%	-5.1
CCOc1cc2sc(N3CCC(C(=O)Nc4ccccc4Cl)CC3)nc2cc1Br	1.4%	6.3
CCC(=O)N1CCc2cc(S(=O)(=O)NCCC(=O)Nc3cc(C)ccc3OC)ccc21	-4.4%	11.4
Cc1c(C(=O)Nc2nc(-c3ccc(F)cc3)ns2)oc2ccc(Cl)cc12	?	-22.8
CCOC(=O)c1cccc(NC(=O)[C@@H](c2ccccc2)N2Cc3ccccc3C2=O)c1	-5.9%	19.3
CCN(Cc1ccccc1)C(=O)C1CCN(S(=O)(=O)c2c(C)noc2/C=C/c2ccc(C)cc2)CC1	?	48.1
CCc1cc(=O)oc2c(C)c3c(cc12)CN(CCc1ccccc1)CO3	4.1%	23.1
COc1ccc(-c2cn3c(n2)sc2cc(C(=O)NCCCN4CCCCC4)ccc23)cc1	?	15.5
CCOCCCn1c(=N)c(S(=O)(=O)c2ccc(C)cc2)cc2c(=O)n3cccc(C)c3nc21	-9.0%	-3.5
Cc1ccccc1OCCn1cc(C(=O)C2CCCCC2)c2ccccc21	0.2%	-0.8
Cc1ccc(CNC(=O)Cn2cc(C(=O)c3ccc(Cl)cc3)c(=O)c3ccc(C)nc32)cc1	-1.5%	-6.9
CCc1ccc2occ(CC(=O)Nc3c(C(=O)Nc4ccc(Cl)cc4)oc4ccccc34)c2c1	15.8µM*	29.5
O=C(O)CSc1nnc(-c2ccc(O)cc2)o1	-10.3%	-2.5
Cc1ccc(NC(=O)c2cc3nc(-c4ccccc4)cc(-c4ccccc4)n3n2)cc1	-20.6%	45.5
Cc1nn(-c2ccccc2)c2c1N(CCCC(=O)NCc1ccc(N(C)C)cc1)C(=O)CS2	-3.0%	-8.0

Some of the entries so far, in markdown:
| structure | ClpP mod | TRPML1 inh |
| --- | --- | --- |
| Nc1nnc(SCC(=O)Nc2ccc(Cl)cc2)s1 | 1.0% | -5.1 |
| CCc1cc(=O)oc2c(C)c3c(cc12)CN(CCc1ccccc1)CO3 | 4.1% | 23.1 |
| CCc1nc2ccc(C(=O)NC3CCN(Cc4ccccc4)CC3)cn2c1N(C)CCN1CCOCC1 | -10.1% | ? |
